# High-throughput results: PubChem BioAssay, Center for Chemical Genomics, University of Michigan
# CDC25B CDK2 inh: human CDC25B-CDK2/CyclinA binding inhibition; P30305+P24941; 0.72% of 94,000 active; HTRF CDC25B-CDK2/CyclinA binding, anti-His/anti-Flag; hits give high values; z-score (no concentration beside the values);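 further: score is relative to mean and SD of negative controls; strong numbers were not always called active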
# TAR Tat displ: HIV-1 TAR-Tat binding disruption. HIV-1 TAR RNA, Tat peptide displacement FRET; hits give high values. z-score (test concentration not listed). 0.6% of 100,000 active;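 further: score is relative to mean and SD of negative controls; some compounds called inactive have numbers as strong as hits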
# The depositor's hits bear a star; nt = not tested or not shown.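 How the source made its calls: active means z-score from 3 up in half or more of its runs; inactive means the rest.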
# A first look, 2 compounds:
structure	TAR Tat displ	CDC25B CDK2 inh
O=C1CSC(=S)N1Cc1ccco1	nt	-0.24
O=C(CSc1ccsc1[N+](=O)[O-])NCc1ccc2c(c1)OCO2	0.06	0.75

# Results, from the first entry:
structure	TAR Tat displ	CDC25B CDK2 inh
O=C1CSC(=S)N1Cc1ccco1	nt	-0.24
O=C(CSc1ccsc1[N+](=O)[O-])NCc1ccc2c(c1)OCO2	0.06	0.75
Cc1nc(C)c(S(=O)(=O)NCc2ccc(-c3cccs3)cc2)s1	nt	-1.7
COc1ccc(COC(=O)C2=C(C)NC3=C(C(=O)CCC3)C2c2cc3c(cc2Cl)OCO3)cc1 (stereo unspecified)	1.6	0.73
Cn1ncc2c(Nc3cccc4c3CCCC4)ncnc21	1	nt
COC(=O)CC1Oc2ccc(C)cc2-n2cc(-c3ccc(C)cc3)nc21 (stereo unspecified)	1.6	0.15
O=C(O)CCCCCN1C(=O)C2CC=CCC2C1=O (stereo unspecified)	1.5	-0.39
COc1ccc(/C=N/NC(=O)Cn2nc(-c3ccccc3)c(-c3ccccc3)nc2=O)cc1	nt	-2.5
O=C(NCCN1CCCC1)C1CCN(c2ccc(-c3cccs3)nn2)CC1	-1.4	nt
O=C(Cn1c(=O)oc2cc(S(=O)(=O)N3CCCCC3)ccc21)N1CCc2ccccc2C1	-1.4	-0.57
O=C(NCCc1cccs1)C1CCCN(S(=O)(=O)N2CCOCC2)C1 (stereo unspecified)	1.5	nt
Nc1nc(-c2ccc(Cl)cc2)nn1C(=O)C(c1ccccc1)c1ccccc1	-1	0.65
O=C(CSc1nc2ccsc2c(=O)n1-c1ccccc1)N1CCCC1	nt	-0.69
CCCC12CN3CC(C)(CN(C1)C3c1ccc(O)c(OC)c1)C2=O (stereo unspecified)	nt	-1.2
CCN(c1ccccc1)c1nc2ccsc2c(=O)s1	-1.4	-1.9

# (listing goes on)
structure	TAR Tat displ	CDC25B CDK2 inh
O=C(O)c1ccc2c(c1)nnn2Cc1ccc(F)cc1	1.4	nt
COc1ccc(-n2c(SCc3cc(=O)n4c(C)cccc4n3)nc3[nH]ncc3c2=O)cc1	nt	-9
O=C(CN1C(=O)COc2ccccc21)NCCN1CCN(c2ccccc2F)CC1	nt	-0.99
O=C(O)c1cc(-c2cccc(Cl)c2)nc2n[nH]c(-c3ccc(F)cc3)c12	2.7	nt
Cc1nn(C)c2c1c(C(F)(F)F)cc(=O)n2CC(=O)NC1CCCCC1	-0.63	nt
CC1=C(C(=O)OCCOc2ccccc2)C(c2ccc(C)s2)C2=C(CCCC2=O)N1 (stereo unspecified)	0.77	-2.6
CCCCNC(=O)COCc1cc(-c2ccco2)on1	0.81	nt
CC(C)CC1(C)NC(=S)N(c2ccccc2)N1 (stereo unspecified)	nt	-0.57
COc1ccc(C(=O)CSc2nc(-c3ccco3)nc3c2c(=O)n(C)c(=O)n3C)cc1	nt	-1.7
O=C(CSc1nc2nccnc2c(=O)n1Cc1ccco1)Nc1ccc(Cl)cc1F	0.29	1.2
Cc1c(C(=O)NCCC(C)C)sc2nc3n(c(=O)c12)CCCC3	1.9	nt

# Compound profiles, as listed above.
# CCCCNC(=O)COCc1cc(-c2ccco2)on1 as listed: TAR Tat displ = 0.81; CDC25B CDK2 inh = nt
# Cc1c(C(=O)NCCC(C)C)sc2nc3n(c(=O)c12)CCCC3 as listed: TAR Tat displ = 1.9; CDC25B CDK2 inh = nt

# In a second layout: results already given
Compound: CC(C)CC1(C)NC(=S)N(c2ccccc2)N1 (stereo unspecified)
  TAR Tat displ: nt
  CDC25B CDK2 inh: -0.57
Compound: COc1ccc(C(=O)CSc2nc(-c3ccco3)nc3c2c(=O)n(C)c(=O)n3C)cc1
  TAR Tat displ: nt
  CDC25B CDK2 inh: -1.7
